GALR2 ag = GALR2 receptor agonists, primary screen, cell-based; Galanin receptor type 2 (Homo sapiens), O43603; GALR2-expressing cells, agonist activation read-out; activation, %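 (tested at 5 µM)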; hit rate 0.48% among 140,000; AID 803, 2007;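 active = above mean plus 3 SD of all compounds, about 5% in these data, not always enough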;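 note: 0% = vehicle buffer wells and 100% = reference agonist at full effect; tested in CHO reporter cells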
Target sequence (O43603 whole entry, looked up): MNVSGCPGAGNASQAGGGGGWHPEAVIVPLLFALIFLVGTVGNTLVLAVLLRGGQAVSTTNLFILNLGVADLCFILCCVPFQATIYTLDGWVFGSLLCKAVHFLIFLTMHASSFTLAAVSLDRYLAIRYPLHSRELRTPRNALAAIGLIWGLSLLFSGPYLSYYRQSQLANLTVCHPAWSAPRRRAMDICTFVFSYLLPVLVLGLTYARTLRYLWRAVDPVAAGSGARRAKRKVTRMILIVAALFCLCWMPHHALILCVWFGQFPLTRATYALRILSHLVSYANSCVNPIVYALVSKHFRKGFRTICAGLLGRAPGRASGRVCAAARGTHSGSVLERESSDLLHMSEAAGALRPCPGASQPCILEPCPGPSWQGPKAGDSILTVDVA
INS promoter inh = inhibitors of insulin promoter-driven GFP, primary screen, imaging, TRM-6 cells (human fetal islet line), eGFP reporter, cell count; reporter expression induced with tamoxifen; inhibition, % at 2 µM; hit rate 0.9% among 130,000;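 active = inhibition above the mean plus 3 SD, with well images judged a real hit on visual review, cut at about 60% in these data, passing the limit was not always enough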
RGS16-Gao = modulators of RGS16 binding to Galphao, primary screen, biochemical, human proteins, multiplexed bead flow cytometry | bead-based flow cytometry RGS16-Galphao binding, fluorescence; actives lie on both sides | binding response (% of control), % at 10 µM | hit rate 0.38% among 220,000;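 active = below 25% or above 175%, edge rows of some plates excepted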;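 note: Galphao activated by GDP with aluminum fluoride before binding; 100% = wells without compound and 0% = beads without RGS; some results beyond the cut were filed as inactive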
Target sequence (O15492 whole entry, looked up): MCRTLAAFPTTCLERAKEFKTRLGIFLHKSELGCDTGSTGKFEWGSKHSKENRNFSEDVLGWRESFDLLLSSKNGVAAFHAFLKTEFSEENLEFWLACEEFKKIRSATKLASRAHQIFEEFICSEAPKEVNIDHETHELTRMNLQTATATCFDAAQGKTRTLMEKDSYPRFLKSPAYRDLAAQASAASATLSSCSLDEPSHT
Target sequence (P09471 whole entry, looked up): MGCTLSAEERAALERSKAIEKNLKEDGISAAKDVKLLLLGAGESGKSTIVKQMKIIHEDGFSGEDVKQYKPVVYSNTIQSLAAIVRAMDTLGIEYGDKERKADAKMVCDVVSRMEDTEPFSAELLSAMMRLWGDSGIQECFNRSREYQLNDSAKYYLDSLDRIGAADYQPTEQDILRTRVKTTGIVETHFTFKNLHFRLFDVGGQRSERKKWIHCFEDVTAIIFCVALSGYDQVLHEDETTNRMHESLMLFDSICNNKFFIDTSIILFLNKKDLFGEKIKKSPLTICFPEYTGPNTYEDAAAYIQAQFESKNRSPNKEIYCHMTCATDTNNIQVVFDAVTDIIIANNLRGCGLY
PKD1 kinase inh = inhibitors of human PKD1 kinase, biochemical, fluorescence polarization; hit rate 0.056% among 200,000; inhibition, %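 (about 10 µM by stock and volumes)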; Serine/threonine-protein kinase D1 (Homo sapiens), Q15139; PKD1 kinase fluorescence polarization assay;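 active = inhibition of 50% or more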;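 note: controls were vehicle for no effect and a reference inhibitor for full effect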
HSV replic up = enhancers of HSV replication in host cells, fold increase, host cell viability | HSV replication augmentation in cells | maximum fold increase | hit rate 0.005% among 220,000;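 active = peak rise of 1.5-fold or more in the series; tested in PC3 cells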;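 note: first round at 10 µM; read as green reporter fluorescence; hits show the peak of a series up to 25 µM; 1 = signal of infected wells without compound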
INS promoter inh cell count = also measured in INS promoter inh; calls as there; normalized cell count, %; measured here: cell count, toxicity; reference of the scale not given here;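 cells exposed to compound for 48 h; stained nuclei by imaging scaled within each plate; lower means fewer cells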
HSV replic up primary fold = second read-out of HSV replic up, no call of its own (marks repeat the call); fold increase; compound at 10 µM; measured here: primary screen fold increase 10 uM; tested in PC3 cells;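 GFP signal in the first replicate; 1 = infected wells without compound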
Active calls of the source: *; i = inactive; . = not tested or not shown.

Value order – GALR2 ag, INS promoter inh, HSV replic up primary fold, HSV replic up, INS promoter inh cell count, RGS16-Gao, PKD1 kinase inh
O=C(CNS(=O)(=O)c1ccc(C(=O)N2CCOCC2)cc1)N1CCOCC1
→ -2.0, ., 1, i, ., 142, 3
Cc1nn(CCCC(=O)Nc2cccnc2Cl)c(C)c1[N+](=O)[O-]
→ ., ., 1, i, ., 89, 6
Oc1ccc(Br)cc1/C=N/N1CCCCC1
→ -0.6, -18, 1.1, i, 109, 99, -2
CCNC(=S)N/N=C/c1ccc(OCC(=O)Nc2ccc(C)cc2)cc1
→ -1.4, 44, 1.1, i, 158, 100, -8
CC(C)(C)NC(=O)NC(=O)COC(=O)c1ccc(OC(F)F)cc1
→ 0.3, 0, 0.96, i, 152, 106, -2
CC1CCN(C(=O)COC(=O)c2ccc(Br)o2)CC1
→ -3.8, -6, 1, i, 99, 35, 4
Cc1nc2c(c(N3CCOCC3)n1)OCC(=O)N2
→ -1.7, ., 0.9, i, ., 94, 8
O=C(Nc1ccc2c(c1)OCO2)c1ccccc1SCC(=O)N1CCCC1
→ -2.5, -7, ., ., 90, 100, -40
Cc1cccc(N=Nc2c(O)[nH]c3ccc(F)cc23)c1
→ ., ., 1.3, i, ., 95, -1
C/C(=N/NC(=O)CSc1nc2ccccc2s1)c1ccncc1
→ ., ., 0.98, i, ., 100, .
O=C(Nc1ccc(N2CCN(C(=O)c3ccco3)CC2)c(Cl)c1)c1cc2ccccc2o1
→ -2.8, 52, ., ., 97, 111, -3
NNC(=O)CNC(=O)C12CC3CC(CC(C3)C1)C2
→ ., ., 1, i, ., 108, -1
CC(=O)C1C(c2ccc(F)cc2)c2c(noc2C)CC1(C)O (configuration not stated)
→ ., ., 0.87, i, ., 97, .
Cc1ccc(-c2nn(CC(=O)NCc3cc(-c4nn(C)c(=O)c5ccccc45)ccc3C)c(=O)c3ccccc23)cc1
→ -2.4, 23, ., ., 134, i, 1
CN(C)/C=C/C(=O)c1cnc(-c2ccc(Cl)cc2)s1
→ ., -73, 1, i, 105, -6.2*, -2
N#Cc1cc(-c2ccccc2)nnc1Sc1ccccc1
→ -3.3, 8, 0.86, i, 110, 101, -12
COc1ccc(Cl)cc1NC(=O)CN(C(=O)c1ccco1)C1CCCCC1
→ -0.8, ., 0.97, i, ., 102, -8
COC(=O)CN1C(=O)C2(C(C#N)=C(N)Oc3cc(C)oc(=O)c32)c2ccccc21 (configuration not stated)
→ -0.1, ., 0.92, i, ., 103, 13
Clc1nc2c(ccc3ccccc32)[nH]1
→ ., ., 1.1, i, ., 99, .
O=C1c2ccccc2C(=O)N1CCCC(=O)N1CCCc2ccccc21
→ -0.9, -9, 0.91, i, 200, 101, -8
COc1cc(/C=C/C(=O)Nc2nc3ccc(S(=O)(=O)NC(C)C)cc3s2)cc(OC)c1OC
→ -1.9, 6, 0.79, i, 101, 104, -5
COc1cccc(NC(=O)c2nnn(Cc3ccc(Br)cc3F)c2N)c1
→ 0.1, ., 0.99, i, ., 103, 5
CC(C)CNc1oc(-c2ccco2)nc1C#N
→ -0.9, ., 0.83, i, ., 104, 8
COc1ccccc1C1C(C(C)=O)=C(C)N=c2s/c(=C\c3cc(OC)c(OC)c(OC)c3)c(=O)n21 (configuration not stated)
→ 4.3, 37, 0.74, i, 74, 106, 1
CCCN(CCC)CCNC(=O)c1cc2c(C)nc3ccccc3c2o1
→ -3.5, 23, 0.84, i, 99, 170, 1
Cc1ccc2cn[nH]c2c1[N+](=O)[O-]
→ ., 11, 0.96, i, 85, 124, -4
COCCNc1nc(-c2ccccc2)nc2c1oc1ccccc12
→ ., ., 1, i, ., 96, .
Cn1c(CSc2nnc(SCc3ccccc3)s2)nc2ccccc21
→ -1.2, ., 0.84, i, ., 104, -5
COc1ccc(-c2nc3ccc(N4CCCC4)cc3c(=O)[nH]2)cc1OC
→ 4.4, 35, ., ., 50, 96, 5
CCS(=O)(=O)N1Cc2ccccc2CC1C(=O)N1CCN(c2cccc(C)c2C)CC1 (configuration not stated)
→ -0.8, -9, 1.1, i, 122, 101, -10
NC(=O)CSc1ccc(-c2ccc(F)cc2)nn1
→ ., ., 1.1, i, ., 98, -5
COc1cccc(C(=O)COC(=O)CCC(=O)NC2CCCCC2)c1
→ ., ., 0.89, i, ., 103, -4
CCN1CN(Cc2ccco2)CNC1=S
→ -0.3, 45, 1.1, i, 62, 85, 3
O=C(O)Cc1sc(Nc2ccccc2)nc1-c1cccs1
→ ., ., 1.6, i, ., 100, .
O=C(CCn1cccc1)Nc1ccc(OC(F)(F)F)cc1
→ ., 21, 0.93, i, 82, 101, -1
CCN1/C(=C/C(=O)c2ccco2)Sc2ccccc21
→ 3.5, ., 0.96, i, ., 101, 5
COc1cccc(CNC(=O)CCC2CCCN(C(=O)c3cc(C)on3)C2)c1 (configuration not stated)
→ ., ., 0.94, i, ., 100, -6
COC(=O)C1=C(C(=O)OC)SC2(S1)C(C(=O)OC)=C(C(=O)OC)SC1=C2c2cccc(C)c2NC1(C)C
→ -2.6, -364, 0.9, i, 71, 101, -13
CN(Cc1ccon1)C(=O)CC1C(=O)NCCN1CC1CCCCC1 (configuration not stated)
→ ., 35, 0.9, i, 42, 103, -1
CCCCNC(=O)CSc1nc2cc3c(cc2c(=O)n1CCCN(CC)CC)OCO3
→ -0.9, -33, 0.9, i, 78, 110, -7
CCCC1S/C(=N/N=C/c2ccco2)NC1=O (configuration not stated)
→ -0.1, 29, 0.94, i, 146, 99, -7
O=c1cc[nH]c2ccc([N+](=O)[O-])cc12
→ ., ., 0.94, i, ., 99, 5
CC(=O)NC[C@H]1CN(c2ccc(N3CCOCC3)c(F)c2)C(=O)O1
→ ., ., 0.79, i, ., 100, .
CCCN1CCC(=O)N([C@H](CSc2ccc(C)cc2)c2ccccc2)CC1
→ ., ., 0.91, i, ., 97, .
Cc1[nH]c(=O)c(C#N)c(C)c1Br
→ -1.0, 28, 0.86, i, 113, 102, -6
COc1cc(C)c(S(=O)(=O)NCc2ccc3c(c2)OCO3)cc1C
→ -2.6, ., 0.87, i, ., 96, -7
CCn1cc(C(=O)OCC(=O)Nc2ccc(S(=O)(=O)N3CCCC3)cc2)c(=O)c2ccc(C)nc21
→ -1.8, 42, 0.79, i, 48, 98, 2
Cc1ccc(CSCCNC(=O)c2cccc([N+](=O)[O-])c2)cc1
→ -1.2, 25, 0.97, i, 48, 44, 0
C=CCn1c(SCC(=O)Nc2nnc(CC)s2)nnc1-c1cccnc1
→ -0.5, -10, 0.94, i, 69, 110, -15
Cc1cc(C(=O)OCC(=O)N2CC(=O)Nc3ccccc32)c(C)n1-c1ccccc1
→ 0.3, ., 1.1, i, ., 86, -9
Cc1[nH]c2ccccc2c1C(=O)COC(=O)C1CC(=O)N(Cc2ccccc2)C1 (configuration not stated)
→ -1.4, -50, 0.99, i, 146, 101, 2
Cc1noc(C)c1COc1cccc(C(=O)OC(C)C#N)c1 (configuration not stated)
→ ., ., 0.93, i, ., 101, -14
CCOC(=O)Cn1cc(C#N)c2ccccc21
→ ., ., 0.95, i, ., 103, -2
CC(=O)c1ccc(NC(=S)NCCCN2CCOCC2)cc1
→ ., ., 0.97, i, ., 105, 2
COc1c(O)cc2oc(-c3ccc(O)c(O)c3)cc(=O)c2c1O
→ ., ., 0.77, i, ., 93, .
COc1ccc(Oc2ccc(N/C=C3\CCCC3=O)cc2)cc1
→ -0.1, -45, 1.1, i, 112, 106, -4
COCCNC(=O)NC(=O)COC(=O)Cc1ccc2c(c1)OCCO2
→ -1.1, 33, 0.94, i, 43, 99, -4
N#CCCN1CCN(Cn2c3ccccc3c3ccccc32)CC1
→ -1.3, ., 0.9, i, ., 112, -7
COc1cc(OC)c(C2N(c3ccc(Cl)c(Cl)c3)C(=O)C3CCCN32)cc1OC (configuration not stated)
→ -1.1, ., 0.96, i, ., 108, 5
CC(Sc1nc2c(cc1C#N)CCCCC2)C(=O)O (configuration not stated)
→ ., ., 1.3, i, ., 101, 3

More compounds follow.
Value order – GALR2 ag, INS promoter inh, HSV replic up primary fold, HSV replic up, INS promoter inh cell count, RGS16-Gao, PKD1 kinase inh
NC(=O)CSc1nnc(Cc2ccc3c(c2)OCO3)n1C1CCCCC1
→ 0.8, ., 0.91, i, ., 93, 0
O=C(C1CC(=O)N(c2ccc3c(c2)OCCO3)C1)N1CCN(c2ccccc2)CC1 (configuration not stated)
→ ., ., 1, i, ., 98, -9
O=C(N/N=C/c1cn(-c2ccccc2)nc1-c1cccnc1)c1ccccc1
→ ., 40, 0.78, i, 115, 108, -2
CCN(CC)S(=O)(=O)c1cc(NC(=O)C2Cc3ccccc3C(=O)O2)ccc1C (configuration not stated)
→ ., ., 1, i, ., 108, .
CCCSc1nnc(N)s1
→ -1.7, -50, 1, i, 72, 80, -11
Cc1ccc(N(CC(=O)Nc2cccc(C)c2)S(=O)(=O)c2cccc3nonc23)cc1
→ -0.9, ., 0.97, i, ., 94, 6
COC(=O)c1ccc(OC)c(OC2CCCC2)c1
→ ., ., 0.91, i, ., 98, .
CC(C)C(=O)c1cn(CC(=O)NCc2ccc3c(c2)OCO3)c2ccccc12
→ -2.3, -283, 0.87, i, 71, 97, 0
COc1cc(C)ccc1OCCCOc1ccccc1Cl
→ -1.1, ., 0.87, i, ., 91, 12
N#C/C(=C(/O)CSc1ccccn1)c1nc2ccccc2s1
→ ., ., 1.4, i, ., 100, 7
CCC(C)(C(=O)NC1CCCC1)N(C(=O)c1cnccn1)c1ccccc1 (configuration not stated)
→ 0.0, ., ., ., ., 109, 0
Nc1n[nH]c(CCCO)n1
→ -0.3, 20, 0.95, i, 213, 99, -15
COC(=O)CN1C(=S)N(Cc2ccccc2)C(=O)C1CC(=O)Nc1ccc(OC)cc1 (configuration not stated)
→ -2.3, 80*, 0.96, i, 39*, 74, 7
CC(C)(C)OC(=O)NCCCCCc1nnc(SCc2ccc(F)cc2)o1
→ ., ., 1.1, i, ., 106, .
CN(C)CCNC(=O)Cn1nc(C(F)F)cc1C1CC1
→ -1.4, 44, 1, i, 105, 102, -2
CCc1nc(SCC(=O)N2c3ccccc3CC2C)c2c(C)c(C)sc2n1 (configuration not stated)
→ 5.6, -13, 0.69, i, 132, 91, 0
COc1ccc(C(=O)NNc2ccccc2)cc1
→ -0.8, 21, 1.1, i, 100, 53, -2
COC(=O)c1ccc(Cn2cnc3ccccc3c2=O)cc1
→ 2.6, 26, 0.75, i, 111, 101, -7
COc1ccccc1S(=O)(=O)c1ccccc1[N+](=O)[O-]
→ -0.8, -42, 0.98, i, 71, 104, -3
O=C(NC1CCCCC1)C12CC3CC(C1)CC(n1cncn1)(C3)C2
→ -0.5, ., 0.93, i, ., 96, 0
O=c1[nH]cnc2scc(-c3ccc(Br)cc3)c12
→ ., 7, 0.9, i, 113, 103, -3
CC(C)c1ccc(CNC(=O)C(=O)NCCCn2ccnc2)cc1
→ ., -100, ., ., 127, 107, -2
Cc1cccc(NC(=O)/C=C/c2cccs2)n1
→ -0.5, -11, 0.84, i, 108, 101, 5

Ordered by number of heavy atoms (largest number first): some entries from above
Value order – GALR2 ag, INS promoter inh, HSV replic up primary fold, HSV replic up, INS promoter inh cell count, RGS16-Gao, PKD1 kinase inh
COC(=O)CN1C(=S)N(Cc2ccccc2)C(=O)C1CC(=O)Nc1ccc(OC)cc1 (configuration not stated)
→ -2.3, 80*, 0.96, i, 39*, 74, 7
O=C(C1CC(=O)N(c2ccc3c(c2)OCCO3)C1)N1CCN(c2ccccc2)CC1 (configuration not stated)
→ ., ., 1, i, ., 98, -9
CCN(CC)S(=O)(=O)c1cc(NC(=O)C2Cc3ccccc3C(=O)O2)ccc1C (configuration not stated)
→ ., ., 1, i, ., 108, .
CC(C)C(=O)c1cn(CC(=O)NCc2ccc3c(c2)OCO3)c2ccccc12
→ -2.3, -283, 0.87, i, 71, 97, 0
CCc1nc(SCC(=O)N2c3ccccc3CC2C)c2c(C)c(C)sc2n1 (configuration not stated)
→ 5.6, -13, 0.69, i, 132, 91, 0
NC(=O)CSc1nnc(Cc2ccc3c(c2)OCO3)n1C1CCCCC1
→ 0.8, ., 0.91, i, ., 93, 0
O=C(NC1CCCCC1)C12CC3CC(C1)CC(n1cncn1)(C3)C2
→ -0.5, ., 0.93, i, ., 96, 0
N#C/C(=C(/O)CSc1ccccn1)c1nc2ccccc2s1
→ ., ., 1.4, i, ., 100, 7
COc1cc(C)ccc1OCCCOc1ccccc1Cl
→ -1.1, ., 0.87, i, ., 91, 12
COc1ccccc1S(=O)(=O)c1ccccc1[N+](=O)[O-]
→ -0.8, -42, 0.98, i, 71, 104, -3
COC(=O)c1ccc(OC)c(OC2CCCC2)c1
→ ., ., 0.91, i, ., 98, .
Cc1cccc(NC(=O)/C=C/c2cccs2)n1
→ -0.5, -11, 0.84, i, 108, 101, 5
Nc1n[nH]c(CCCO)n1
→ -0.3, 20, 0.95, i, 213, 99, -15

Screens: PubChem BioAssay, several laboratories
